Assay outcomes as filed in PubChem BioAssay.
RE007 growth inh – less growth of the S. pombe RE007 Vpr strain. S. pombe RE007 Vpr strain, BacTiter-Glo ATP luminescence, 24 h; control for the full effect not named in the record. Potency, µM (top dose mostly 92.2 µM), for inactives: top-dose activity change, negative = less growth. 0.21% of 360,000 active. AID 651644; active = well fitted falling curve with a large enough effect; inconclusive = small, poorly fitted or top-dose-only effect; inactive = no such curve, though single readings can be large or run the other way;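 further: on the % scale 0 is the no-effect control and ±100 the full control effect; nearly all actives have a fitted effect of over 50% in size; the assay follows cell death caused by Vpr and the record does not say whether a fall means rescue or toxicity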
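Fission yeast RE007 carrying one integrated HIV-1 vpr copy, seeded at OD 0.01 in PMG+AL medium with 23 nL pinned compound. Grown 24 h at 30 degrees; viability read by BacTiter-Glo luminescence after 5 min.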
NS1 function inh – blocks influenza NS1 protein function; 0.4% of 270,000 active; S. cerevisiae slowed by influenza A NS1, growth recovery by OD600; Potency, µM (top dose mostly 46.1 µM), for inactives: top-dose activity, positive = more growth; active means well fitted rising curve with a large enough effect; inconclusive means small, poorly fitted or top-dose-only effect; inactive means no such curve, though single readings can be large or run the other way; further: nearly all actives have a fitted effect of over 50% in size
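In this qHTS, NS1 from influenza A is expressed in budding yeast, where it slows growth. Cells are switched from glucose to 2% galactose medium (pH 6.0, -URA), treated with compound, and growth recovery is read at OD600.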
2A StopGo – lowers the luciferase signal of an FMDV 2A StopGo reporter; AID 1159524; human cells with a luciferase reporter of 2A StopGo recoding; control for the full effect not named in the record; 1.2% of 410,000 active; Potency, µM (series often up to 57.9 µM), for inactives: at the top dose signal change, negative = less light; active = well fitted falling curve with a large enough effect; inconclusive = small, poorly fitted or top-dose-only effect; inactive = no such curve, though single readings can be large or run the other way; tested in HEK293T cells; further: on the % scale 0 is the no-effect control and ±100 the full control effect; nearly all actives have a fitted effect of over 45% in size; luciferase light after 4 h
LASV entry inh – Lassa virus entry inhibition; Lassa virus pseudotype entry inhibition, cell reporter; control for the full effect not named in the record; AID 540256; Potency, µM (titrated, usually from 37.9 µM), without a hit: at the top dose activity change, negative = inhibition, most hits filed as inhibitors; 1.2% of 300,000 active; active means well fitted inhibition curve with a large enough effect; inconclusive means small, poorly fitted or top-dose-only effect, or effect the other way; inactive means flat fitted curve, though single readings scatter; tested in HEK293 cells; further: on the % scale 0 is the no-effect control and ±100 the full control effect; nearly all actives have a fitted effect of over 50% in size; luciferase read-out
Cruzain inh noDet – inhibitors of Trypanosoma cruzi cruzain without detergent; P25779; purified cruzain, Z-FR-AMC fluorescence, no detergent; Potency, µM, for inactives: max response, negative = inhibition, actives largely listed as inhibitors; 2.3% of 200,000 active; AID 1476;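 further: plate controls were enzyme without inhibitor for no effect and buffer without enzyme for full effect; nearly all actives have a fitted effect of over 40% in size; top concentration of the series not given in the record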
Target sequence (P25779 123-467 limits assumed): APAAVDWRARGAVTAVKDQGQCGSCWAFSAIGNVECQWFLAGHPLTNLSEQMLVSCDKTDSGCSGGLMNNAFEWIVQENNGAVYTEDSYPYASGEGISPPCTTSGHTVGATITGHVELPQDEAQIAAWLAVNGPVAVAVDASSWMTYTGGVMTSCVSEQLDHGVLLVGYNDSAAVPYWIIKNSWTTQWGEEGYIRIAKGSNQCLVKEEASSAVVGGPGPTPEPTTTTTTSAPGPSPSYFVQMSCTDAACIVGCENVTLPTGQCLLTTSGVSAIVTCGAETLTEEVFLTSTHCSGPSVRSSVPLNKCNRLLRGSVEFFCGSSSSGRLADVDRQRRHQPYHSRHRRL
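Purified cruzain at 1.5 nM, pre-incubated 15 min with compound at room temperature in 100 mM sodium acetate pH 5.5, 5 mM DTT, 0.00005% Triton X-100. Reaction started with 2 uM Z-FR-AMC; AMC fluorescence increase over 60 s gives rate.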
MARV entry inh – Marburg virus entry inhibition. Potency, µM (titrated, usually from 37.8 µM), for inactives: top-dose activity change, negative = inhibition, usual class: inhibitors. 1.8% of 300,000 active. Marburg virus pseudotyped entry inhibition, cell reporter; control for the full effect not named in the record; about a third of the inactives were read at about 46 µM. AID 540276; active = well fitted inhibition curve with a large enough effect; inconclusive = small, poorly fitted or top-dose-only effect, or effect the other way; inactive = flat fitted curve, though single readings scatter; tested in HEK293 cells; about a fifth of its hits are not listed in these tables; further: on the % scale 0 is the no-effect control and ±100 the full control effect; luciferase read-out
Cruzain Triton – cruzain (T. cruzi) inhibition with detergent; P25779; purified cruzain, Z-FR-AMC fluorescence, 0.01% Triton; Potency, µM, for the others: max response, negative = inhibition, most hits filed as inhibitors; 0.43% of 200,000 active;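 further: plate controls were neutral wells for no effect and buffer without enzyme for full effect; nearly all actives have a fitted effect of over 40% in size; top concentration of the series not given in the record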
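Read-out: AMC fluorescence (360 nm excitation, 450 nm emission), four reads over 2 min, first-to-third difference used. Conditions: cruzain 1.5 nM, Z-FR-AMC 2 uM, pH 5.5 acetate, 5 mM DTT, 0.01% Triton X-100.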
SARS PLpro yeast – SARS-CoV PLP inhibition in yeast; S. cerevisiae expressing SARS-CoV PLpro, growth rescue; control for the full effect not named in the record; Potency, µM (titrated, usually from 32.9 µM), for inactives: at the top dose activity, positive = growth rescue; 0.19% of 330,000 active; AID 485353; active means well fitted rising curve with a large enough effect; inconclusive means small, poorly fitted or top-dose-only effect; inactive means no such curve, though single readings can be large or run the other way; further: 0% is about no effect; nearly all actives have a fitted effect of over 55% in size; growth read by luminescence after 48 h
Starred values were filed as active, the others as inactive; ? = inconclusive; . = not tested or not shown; & = joins results of further samples; [ ] = another dose, or the depositor's remark. Unless noted, the call rests on the fitted dose curve; in most records, active means well fitted curve in the direction sought with a large enough effect; inconclusive means small, poorly fitted or top-dose-only effect, or another doubt; inactive means no such curve, though single readings can be large; an effect the other way counts as inactive or inconclusive. Potency means the concentration at half of the fitted maximal effect.

Molecule | RE007 growth inh | NS1 function inh | 2A StopGo | LASV entry inh | Cruzain inh noDet | MARV entry inh | Cruzain Triton | SARS PLpro yeast
Cc1ccc(NC(=O)c2ccc(-c3nn(C)c(=O)c4ccccc34)cc2)c(C)c1 | -25.5%[3.69 µM] | -2.5% | -16.5% | 0.1% | 0.2% | -4.4% | -0.6% | -7.9%
CC(C)(C)OC(=O)NCC12C=CC(O1)C1C(=O)N(Cc3ccccc3)C(=O)C12 (stereo not given) | 44.7µM* | 6.4% | ? | ? | 10.9% | -19.1%[46.1 µM] | -3.5% | -95.1%
CN1C(=O)NC(c2cccc([N+](=O)[O-])c2)C2=C1CCCC2=O (stereo not given) | 8.4% | 2.7% | -22.6% | . | . | . | . | 0.9%
COc1cc(OC)cc(C(=O)NCCNC(=O)c2ccccc2)c1 | -9.9% | 5.7% | -19.1% | 0.5% | 4.8% | ? | 8.7% | 7.1%
Cc1cccc(C)c1N(CC(=O)N1CCN(c2ccccc2F)CC1)S(C)(=O)=O | 4.5% | -6.1% | -13.6% | . | . | . | . | 0.5%
CCSC1=N/C(=C\c2ccccc2)C(=O)N1c1ccc(OC)cc1 | -14.6% | . | -21.3% | -10.7% | . | -2.1% | . | -0.8%
C=CCc1ccccc1OCC(O)CN(CC)CC (stereo not given) | 32.5% | 2.2% | 3.3% | -3.5% | -3.0% | -14.6% | 2.1% | 3.0%
O=C(c1cccc(F)c1)N1CCCc2ccccc21 | -6.1% | -16.6% | -7.4% | . | . | . | . | -1.9%
O=C(NN=Cc1cccc2ccccc12)C(=O)NN=Cc1cccc2ccccc12 | 2.2% | . | 5.6% | 17.2%[46.1 µM] | . | ? | . | .
Cc1ccc(-c2cc(C(F)(F)F)n3nc(C(=O)NCC45CC6CC(CC(C6)C4)C5)cc3n2)cc1 | . | . | 6.9% | -16.7%[46.1 µM] | -16.4% | . | 6.8% | .
O=c1[nH]c(CN2CCN(CCO)CC2)nc2ccccc12 | -6.4% | 6.8% | -15.8% | 1.0% | 0.9% | 0.5% | -0.1% | 10.5%
O=C(c1ccccc1)n1ccc(-c2cccs2)n1 | 30.5% | -8.1% | 10.6% | 2.2% | . | 7.8% | . | -4.2%
CCNC(=O)C1CCCN1S(=O)(=O)c1ccc(OC)cc1 (stereo not given) | -6.4% | 4.0% | 15.0% | -2.5% | -8.4% | -1.7% | 2.8% | .
Cc1ccc(-c2nc3ccccc3c(=O)n2-c2ncccc2C)cc1 | -1.9% | -17.3% | 19.0% | 15.6% | -3.8% | -11.4% | 2.2% | -1.4%
O=C1CCC(=O)N1CC(=O)N1CCCc2ccccc21 | 13.7% | -5.8% | 17.3% | 0.1% | . | 8.2%[46.1 µM] | . | 9.8%
c1ccc(-c2ccc3c(c2)c2c4n3CCN=C4CCC2)cc1 | -24.2% | -55.7% | 0.0% | -5.4% | ? | 25.9µM* | -9.9% | -13.0%
C[C@@H]1NS(=O)(=O)[C@H]2C[C@@H]3C=C[C@]2(O3)[C@H]1OC(=O)Nc1ccc(C(F)(F)F)cc1[N+](=O)[O-] | -2.0% | . | -0.3% | . | . | 2.9% | . | 1.3%
CN1CCN(C(=O)c2cc3ccccc3oc2=O)CC1 | -5.8% | 1.7% | 4.4% | -0.8% | -3.6% | -3.9%[46.1 µM] | 1.3% | 3.5%
CCOC(=O)C(=CNc1ccc(C)cc1C)C(=O)OCC | -23.6% | -8.5% | 10.7% | -8.6% | 8.6% | 1.5% | -4.1% | 5.1%
Clc1ccccc1C1Nc2cccc3cccc(c23)N1 | ? | 18.7% | -11.3% | . | . | . | . | -10.4%
CN(C)C(=O)c1cn(-c2ccc(Cl)cc2)c(=O)c2ccccc12 | 3.6% | 9.1% | -2.6% | -3.1% | . | -4.8%[46.1 µM] | . | -2.2%
COc1ccccc1N1CCN(C(=O)CCSCc2ccccc2F)CC1 | 2.3% | . | -14.2%&5.8% | -3.3% | 27.5% | 1.8%&1.8% | 0.9% | 1.1%
Cc1cc(C)c(NC(=O)Cn2c(=O)n(CCC(=O)NCc3ccc4c(c3)OCO4)c(=O)c3ccccc32)c(C)c1 | . | . | 20.6% | 5.6%[46.1 µM] | -3.5% | ? | 0.6% | .
Cc1ccc(CNCC(O)(c2ccccc2)c2ccccc2)cc1 | -13.0% | -7.0% | -5.7% | . | . | . | . | 0.3%
O=C(CC1SC(N2CCCC2)=NC1=O)Nc1ccc(C(=O)N2CCN(c3cccc(Cl)c3)CC2)cc1 (stereo not given) | -5.4% | . | ? | ? | . | -38.3% | . | -2.3%
CCCCOc1ccc(C2=NC(c3ccncc3)=Nc3ccc(Br)cc3N2)cc1 | . | . | -4.1% | -2.4%[46.1 µM] | 5.2% | -17.8%[46.1 µM] | -4.6% | .
CN(C(=O)COc1ccccc1)c1nnc(-c2ccncc2)s1 | -25.1% | -11.8% | -11.4% | -7.6% | -5.2% | 2.9%[46.1 µM] | -0.7% | -18.2%
CC(=O)c1cccc(NC(=O)CCCNC(=O)c2ccc(Cl)cc2)c1 | 9.8% | -1.6% | -10.7% | -3.1% | . | ? | . | -2.8%
COc1cc(OC)c(OC)cc1CN1CCCC(C(=O)c2ccc3c(c2)OCO3)C1 (stereo not given) | -13.9% | -1.1% | -19.3% | -1.5% | . | ? | . | 0.5%
Cc1ccc(C)c(NC(=O)C(OC(=O)c2cc[n+]([O-])cc2)c2ccccc2)c1 (stereo not given) | 7.4% | . | -4.2% | 5.5% | . | 4.8% | . | -3.3%
COc1cccc(C(CC(=O)Nc2cccc3ccccc23)NC(=O)c2ccccc2)c1 (stereo not given) | -3.1% | -1.9% | ? | -21.7%[14.3 µM] | ? | -24.2% | 2.8% | -3.8%
Cc1ccc(-n2ncc3c(=O)[nH]c(SCC(=O)N4CCN(c5ccccc5)CC4)nc32)cc1 | 2.0% | -2.1% | -14.3% | ? | 25.1µM* | -3.9% | 0.5% | 1.0%
COc1ccc(OC)c(NC(=O)CSc2nc(=O)n(Cc3ccccn3)c3c2CCC3)c1 | -18.6% | . | 12.7% | -11.6% | . | -11.0% | . | 7.7%
CN(C(=O)CC1C(=O)NCCN1Cc1ccccc1C(F)(F)F)C1CCOCC1 (stereo not given) | 0.0% | 0.6% | -12.3% | . | . | . | . | 1.6%
CC(C)c1ccc(NC(=O)c2cc3c(s2)-c2ccccc2SC3)cc1 | . | . | -1.9% | -8.8%[46.1 µM] | 10µM* | -10.4%[46.1 µM] | -4.1% | .
Cc1ccc(OCC(=O)Nc2ccc3c(c2)OCO3)c([N+](=O)[O-])n1 | -11.2% | 6.4% | 48.2%[activator] | ? | 7.5% | -9.4% | -1.2% | -16.6%
COc1cccc(C(C#N)NCCCNC(C#N)c2cccc(OC)c2OC)c1OC (stereo not given) | 12.0% | . | -5.5% | -1.1% | . | 5.1% | . | .
CCNC(=S)N/N=C(\C)c1ccc(Cl)s1 | -23.4% | -32.8% | -15.3% | -12.5% | -0.3% | -25.8% | -10.2% | ?
O=C1CSC(c2ccccn2)N1c1ccc(Br)cc1 (stereo not given) | 1.6% | . | ? | 5.3% | . | -9.7%[46.1 µM] | . | 0.5%
C=CCn1c(CSc2nc3ccccc3s2)nnc1SCC(=O)NCc1ccco1 | -16.7% | 1.3% | -5.3% | -0.3% | ? | 6.8%&6.8% | -8.7% | 1.1%
CC1(C)Cc2c(c(-c3ccccc3)nc(N3CCCC3)c2C(N)=O)CO1 | 1.6% | -0.3%[9.22 µM] | 26.3% | -15.8% | -4.8% | -10.1%&-10.1% | -3.1% | 0.7%
Cc1ccc(NC(=O)Nc2ccc3c(c2)N(C)C(=O)CS3)nc1 | 13.7% | 11.2% | -23.1% | -20.1% | -9.6% | -29.7% | -1.9% | -5.1%
N#CCC(=O)N1CCCCCC1 | 2.2% | 1.9% | 14.5% | ? | 5.3% | 11.9% | -4.6% | 1.3%
C/C=C/c1ccc(OCCN2CCc3ccccc3C2)c(OC)c1 | 0.3% | -5.6% | -18.4% | 2.7% | 5.5% | 34.4% | -1.9% | -3.9%
C/C(=N\Nc1ccccc1C(=O)O)c1ccncc1 | 15.9% | 15.5% | 15.4% | -2.2% | . | ? | . | 0.6%
CCC(CO)(C(=O)OC1CC2CCC(C1)N2C)c1ccccc1 (stereo not given) | 5.5% | -4.8% | 1.4% | . | . | . | . | 5.5%
O=C1C(=O)N(CCCc2ccccc2)c2ccccc21 | 12.0% | 0.7% | 22.0% | . | . | . | . | -11.9%
O=C(Nc1ccc(S(=O)(=O)NCc2ccco2)cc1)c1cccc(F)c1 | 1.0% | 4.2% | 38.2%[activator] | -0.9% | . | -13.1% | . | 0.3%
COc1ccc(-c2cc(C(=O)NN)n(-c3ccccc3)n2)cc1 | 1.9% | 19.3% | 12.0% | -15.2% | -7.5% | ? | -2.2% | -18.5%
CCN(CC(=O)Nc1cc(Cl)ccc1C)C(=O)CSCc1c(C)noc1C | 30.3% | . | -12.9% | 14.1% | . | -41.2%[46.1 µM] | . | -1.3%

Next part
Molecule | RE007 growth inh | NS1 function inh | 2A StopGo | LASV entry inh | Cruzain inh noDet | MARV entry inh | Cruzain Triton | SARS PLpro yeast
COc1ccc(CCC(=O)Nc2ccc3c(c2)OCCO3)cc1 | 18.8% | -7.4% | 21.9% | 14.8% | 4.0% | 6.9% | 2.3% | -2.3%
CCOc1ccc(NC(=O)CNS(=O)(=O)c2c(C)cc(C)cc2C)cc1 | 5.5% | -19.9% | 2.4% | -2.0% | . | -8.2% | . | 1.7%
CCOC(=O)c1c(NC(=O)CC)sc(C(=O)N2CCCCC2)c1C | 7.8% | 4.4% | 19.2% | -8.6% | 2.8% | 11.7% | 0.8% | 0.9%
CC(=O)Nc1cccc2c1C(=O)N(c1cccc(OC(C)=O)c1)C2=O | 0.2% | . | -7.2% | 0.2% | . | 26.7% | . | 4.7%
